Biofilm kill mix: mixture kills Candida albicans biofilm cells; C. albicans biofilm persisters + clotrimazole, fluorescence viability; primary screen in compound mixtures of four per well; inhibition, % at 7.6 µM; 0.02% of 120,000 active; AID 1242;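 active = inhibition above 30.3% in the primary screen of four-compound pools, then above 30% when the compound was retested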;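 also: compounds exposed to preformed 24 h biofilms for 48 h; the number belongs to the whole pool; some results filed as inactive read as strong as hits; inactives centre near 12; 0% = biofilm with clotrimazole alone and 100% = kill control; retested singly at about 60 µM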
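Incubation: 24 h biofilm formation, then 48 h compound exposure, 37 °C | Material: C. albicans biofilms | Buffer or medium: RPMI/MOPS medium, pH 7.0 | Measured by: 2-h Alamar Blue fluorescence, 535/590 nm excitation/emission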
* marks the source's active call; other numbers are inactive results; & = joins results of further samples. Not all compounds are listed. The share of hits here may be higher or lower than overall.

SMILES | Biofilm kill mix
COc1ccc(/C=C(\NC(=O)c2ccccc2)C(=O)NCCC(=O)O)cc1 | 23
CCOC(=O)N1CCC(NC(=O)c2cc(C(=O)Nc3cccc(C(F)(F)F)c3)ccc2CO)CC1 | 11
O=C(c1cccnc1)N1CCN(c2ccccc2Cl)CC1 | 0
O=[N+]([O-])c1ccccc1OCCOCCOc1cccc2cccnc12 | 11
Cc1ccc2c(c1)C(c1ccccc1)N(C(=O)c1ccc(S(=O)(=O)N3CCOCC3)cc1)CC(=O)N2 (stereo unspecified) | 12
CCOC(=O)C1(Cc2ccccc2)CCN(Cc2cccc(OC)c2O)CC1 | 11
O=C(Nc1ccc(F)cc1)C(=O)c1c(O)[nH]c2ccc([N+](=O)[O-])cc12 | 15
CCCCCOCC1CC(C/C(C)=N/NC(N)=S)C(=O)O1 (stereo unspecified) | 4
CCCc1nc2oc3c(=O)[nH]cnc3c2c2c1CCCC2 | 11
O=C(CCS(=O)(=O)c1ccccc1)Nc1ccc2c(c1)OCO2 | 1
CCCCN(CCCC)c1ncnc2nc[nH]c12 | 13
CC1CCC(C(C)C)C(OC(=O)Cn2c(-c3ccc(Br)cc3)[n+](C)c3ccccc32)C1 (stereo unspecified) | 11&26
CC1(C)Cc2nc(Cl)c(C#N)cc2CO1 | 11
CC(OC(=O)c1ccccc1O)C(=O)Nc1ccc(Cl)cn1 (stereo unspecified) | 9
CCC1CCCCN1C(=O)COc1ccccc1NC(C)=O (stereo unspecified) | 9
O=C(O)c1ccccc1/C=N/N1CCN(C2c3ccccc3-c3ccccc32)CC1 | 22
COC(=O)CCN(C(=O)c1cc([N+](=O)[O-])cc([N+](=O)[O-])c1)c1ccccn1 | 18
C/C(CC(=O)N(C(C)C)C(C)C)=N\NC(=O)COc1ccc(Br)cc1Br | 7
Cc1ccccc1Cn1cc(NC(=O)CCCn2nc([N+](=O)[O-])cc2C)cn1 | 3
COc1cccc(CN2CCNC(=O)C2CC(=O)N(C)CCc2ccccn2)c1OC (stereo unspecified) | 16
CN(C)S(=O)(=O)c1ccc(NC(=O)CSc2nnnn2C)cc1 | 27
O=C1CC(NC(=O)C(F)(F)F)c2cc3c(cc21)OCO3 (stereo unspecified) | -9
O=C(c1cccc2ccccc12)N1CCN(c2ccc([N+](=O)[O-])c(N3CCOCC3)c2)CC1 | 18
CC(=O)Nc1ccc(/C=C/c2ccc3c([N+](=O)[O-])cccc3n2)cc1 | 12
O=C(c1cnn2c(C(F)(F)F)cc(-c3cccs3)nc12)N1CCOCC1 | 25
CN(C)CCOC(=O)CCCCCCCCC(=O)OCCN(C)C | 21
CCOc1ccc(NC(=O)C2CCCN(C)C2)cc1 (stereo unspecified) | 1
CCNc1nc(NCC)n2c(SCC(=O)Nc3ccc(C(F)(F)F)cc3[N+](=O)[O-])nnc2n1 | -8
O=C(c1ccccc1)c1cnc[nH]1 | 3
O=C(NN(C(=O)C1CC1)c1nc2ccccc2s1)C1CC1 | 5
CCc1nnc(N2C(=N)SCC2=O)s1 | 31
COc1ncccc1-c1nnn(-c2ccc(F)cc2)n1 | 16
O=C(CN1C(=O)S/C(=C/c2cccnc2)C1=O)N1CCOCC1 | 10
COc1ccc(N2CCN(C(=O)C(=O)c3c(C)n(C)c4ccccc34)CC2)cc1 | -5
CN(C)C(=O)c1ccc(N/C=C(\C=O)c2nc3ccccc3o2)cc1 | 26
COc1ccc(/C=C2\SC(=S)N(N3CCOCC3)C2=O)c(OC)c1 | 10
Cn1c(N2CCN(C(=O)Nc3ccc(F)cc3)CC2)nc2ccccc21 | 4
CCOC(=O)COc1cc(-n2c(=S)[nH]c3ccccc3c2=O)c(Cl)cc1Cl | 7
N#Cc1c(-c2ccco2)ccn(Cc2ccc(F)cc2)c1=O | 16
O=C(NNc1ccccc1C(F)(F)F)c1sccc1Br | 13
CC(C)(C)NC(=O)c1ccc2c(c1)C1C3CCC(C3)C1C(c1ccccc1)N2 (stereo unspecified) | 12
CN(CCO)c1cc(N2CCN(C(=O)c3ccco3)CC2)c2nonc2c1[N+](=O)[O-] | 3
Cc1ccc2nc3nc(NCC4CCCO4)c(C(=O)NC4CCCCC4)cc3c(=O)n2c1 (stereo unspecified) | -6
O=C(COc1ccccc1)Nc1ccc(N2CCN(C(=O)c3ccco3)CC2)cc1 | 20
C=CCn1c(SCc2cc(=O)n3cc(C)ccc3n2)nnc1-c1cccc(C)c1 | 8
CCc1c(C)sc(NC(=O)Cn2nc(C)c([N+](=O)[O-])c2C)c1C(N)=O | 5
FC(F)(F)c1ccc(C2[C@H]3CN(Cc4cccnc4)[C@H](c4ccccc4)C34CC2(c2cccnc2)C4)cc1 (stereo partly specified) | 19
O=C(O)/C=C/C(=O)Nc1c(F)cccc1F | 22
CCOC(=O)C1(Cc2ccccc2)CCN(Cc2ccc(C3CCCCO3)s2)CC1 (stereo unspecified) | 27
CN(C)CCNc1ccc(-c2nn(C)c(=O)c3ccccc23)cc1[N+](=O)[O-] | 21
CC(=O)N1N=C(c2ccc(Br)cc2)CC1c1cn(C)c2ccccc12 (stereo unspecified) | 15
CCCC(=O)NC(c1ccc(N(C)C)cc1)c1c(O)ccc2ccccc12 (stereo unspecified) | 9
CC(=O)OCc1nc2sc3c(c2c(=O)[nH]1)CCCC3 | 8
CCOc1ccc(/C=C2\N=C(c3cccs3)OC2=O)cc1OC | 4
O=S(=O)(Nc1ccc(OC(F)(F)F)cc1)c1cccc2nonc12 | 18
Cc1cc(NC(=O)Cc2csc(-c3ccccc3)n2)ccc1Br | 10
O=C(c1cccc(COc2cccc3ccccc23)c1)N1CCCC1 | 20
Oc1cccc(/C=N/Nc2cc(N3CCCC3)nc(N3CCCC3)n2)c1 | 20
NNC(=O)CN(CCc1ccccc1)S(=O)(=O)c1ccc(Cl)cc1 | 4
O=C(Nc1ccccc1[N+](=O)[O-])c1cc2ccccc2nc1Cl | 20

New compounds follow.
SMILES | Biofilm kill mix
CCOC(=O)N1CCc2c(sc(NC(=O)CN3CCOCC3)c2C(=O)Nc2ccccc2)C1 | 13
O=C(NC(c1ccccc1)c1ccccc1)N1CCOCC1 | 8
O=C(NC1CCCCC1)N1CCN(c2nc(-c3ccccc3)cs2)CC1 | 20
O=C(NC(=S)Nc1cc(C(F)(F)F)ccc1N1CCOCC1)c1ccco1 | 7
COc1cc(NC(=O)COC(=O)c2ccc(S(=O)(=O)N3CC(C)CC(C)C3)cc2)c(C)cc1[N+](=O)[O-] (stereo unspecified) | 19
O=C(C1=C[C@@H](c2ccc3c(c2)OCO3)C[C@@H](OCc2ccc(CO)cc2)O1)N1CCOCC1 | 19
CC(=O)OCC(=O)C1(O)CCC2C3CCC4=CC(=O)C=CC4(C)C3C(O)CC21C (stereo unspecified) | 19
O=C1OCCC1Sc1nnc(-c2ccc(Cl)cc2Cl)o1 (stereo unspecified) | 0
Cc1ccccc1C(=O)NC(C(N)=O)P(=O)(OC(C)C)OC(C)C (stereo unspecified) | 19
CCOC(=O)/C(=N\Nc1cc(Cl)ccc1Cl)N1CCOCC1 | 16
CCNc1nc(NCC)nc(N(C#N)C(C)C)n1 | 18
CCc1cccc(C)c1NC(=O)CN(C)Cc1cccc(F)c1 | 2
Cc1ccc(NC(=O)/C=C\C(=O)NCC(=O)O)cc1C | 5
Cc1ccc(C(=O)Nc2ncc(Cc3ccc(SC(F)F)cc3)s2)cc1 | 23
Cc1nc(C(=O)N/N=C/c2[nH]ncc2Br)cs1 | 15
CC(C)(C)OC(=O)C(C(=O)OC(C)(C)C)c1ccc(Cl)nn1 | 21
CCN(CC)S(=O)(=O)c1cccc(C(=O)N/N=C/c2ccc(N3CCOCC3)cc2)c1 | -6
COc1ccc(C(=S)N2CCOCC2)cc1OC(=O)c1cccc([N+](=O)[O-])c1 | 17
C[C@]1(C(=O)NCCN2CCOCC2)C=C[C@@H](Cc2ccccc2)N1C(=O)c1ccccc1 | 4
COC(=O)c1cc(C(=O)Nc2nnc(CC(C)C)s2)cc([N+](=O)[O-])c1 | 14
COc1ccc(C(=O)NC(NC(=O)c2ccc(OC)c(OC)c2)c2ccccc2F)cc1OC | -3
O=C(Nc1cccc(C(F)(F)F)c1)C(SCCO)c1ccccc1 (stereo unspecified) | 4
COc1ccc(OCC(O)CNC(=O)c2ccc(C)cc2)cc1 (stereo unspecified) | 24
O=C(O)c1ccc(OCc2cn3ccccc3n2)cc1 | -7
COc1cc(/C=C/C(=O)O)cc(S(=O)(=O)Nc2cccc(SC)c2)c1OC | 12
CNc1nc(OCC#N)nc(N2CCCCC2)n1 | 1
Cc1cc(C)n(Cc2ccc(C(=O)NN)o2)n1 | 15
CCOc1ccc(-c2nnn(CC(=O)NCc3ccc4c(c3)OCO4)n2)cc1 | 12
Cc1cc(S(=O)(=O)NCC(C)C)ccc1OCC(=O)NCc1ccco1 | 9
CCN1CCCC1CN(Cc1cc2ccc(C)cc2[nH]c1=O)C(=S)Nc1ccc(OC)cc1 (stereo unspecified) | 6
O=C(O)CCS(=O)(=O)c1ccccc1Cl | 9
O=P(c1ccccc1)(c1ccccc1)c1nc(-c2ccccc2)oc1NCc1ccccc1 | 4
Cn1c(SCC(=O)Nc2cccc(C(=O)O)c2)nnc1-c1cc2cc(Br)ccc2o1 | 23
COc1ccc(CNC(=O)c2ccc(SC)cc2OC)cc1 | 19
Cn1c(=O)c(C(=O)CCl)c(N)n(Cc2ccccc2)c1=O | 16
CC1CC(C)(C)NC(=S)N1CC(=O)NCc1ccc(F)cc1 (stereo unspecified) | 5
COC(=O)CNC(=O)CSc1nnc2cc(C)c3ccccc3n12 | 16
CN(C)CCOC(=O)c1ccc2[nH]c3c(c2c1)CSCC3 | 20
CC(=O)N(CN1C(=O)CCC1=O)c1cccc(Cl)c1 | 5
Cc1ccc(CCCOC(=O)C[N+]2(C)CCCCC2)cc1 | 4
O=c1sc(Nc2ccccc2)nc2ccccc12 | 4
Cc1ccc(N2NC(=O)/C(=C/C=C/c3ccco3)C2=O)cc1C | 14
COc1cccc(OCC(=O)Nc2ccccc2-c2ccccc2)c1 | 25
CC(C)(C)NC(=O)N1CCN(c2nc(-c3ccccc3)ns2)CC1 | 1
CCOc1ccc(C(=O)N2CCCC2)cc1 | 8
COc1ccccc1NC(=O)COc1ccc(Br)cc1CNCCCN1CCOCC1 | 12
CCOc1ccc(NC(=O)CCC(=O)c2ccc(-c3ccccc3)cc2)cc1 | 9
O=C(O)CCc1nc2cc(Cl)ccc2n(Cc2ccccc2)c1=O | 3
Fc1ccc(NC(=S)Nc2nccs2)cc1 | 10
CCC1C(=O)Nc2ccccc2N1C(=O)c1ccc(Cl)nc1 (stereo unspecified) | 9
COc1ccc(NC(=O)c2nc(C)c(C3(C)CC(c4ccccc4)=NO3)s2)cc1 (stereo unspecified) | 14
CC(C)OP(=O)(OC(C)C)C(O)c1ccc2c(c1)OCO2 (stereo unspecified) | 19
CSc1ccccc1NC(=O)Nc1ccccc1Cl | 11
O=C(NCCc1ccc2c(c1)OCCO2)c1ccccc1F | 4
CCc1ccc(N(C(C)=O)c2nc(CCl)cs2)cc1 | 5
Cc1ccccc1C(=O)NNC1CC(=O)N(c2ccc3c(c2)OCCO3)C1=O (stereo unspecified) | 6
Nc1ccc2oc3ccccc3c2c1 | 9
Nc1c(-c2ccccn2)cnn1-c1nc(-c2ccc(F)cc2)cs1 | -3
O=C(O)CCCn1cc(NC(=O)c2ccc(Br)o2)cn1 | 13
Nc1cc(=O)nc(SCC(=O)Nc2ccccc2)n1-c1ccccc1 | 14

By substructure: the compounds so far containing an aryl thioether with sulfur outside any ring (11)
SMILES | Biofilm kill mix
CN(C)S(=O)(=O)c1ccc(NC(=O)CSc2nnnn2C)cc1 | 27
CCNc1nc(NCC)n2c(SCC(=O)Nc3ccc(C(F)(F)F)cc3[N+](=O)[O-])nnc2n1 | -8
C=CCn1c(SCc2cc(=O)n3cc(C)ccc3n2)nnc1-c1cccc(C)c1 | 8
O=C1OCCC1Sc1nnc(-c2ccc(Cl)cc2Cl)o1 (stereo unspecified) | 0
Cc1ccc(C(=O)Nc2ncc(Cc3ccc(SC(F)F)cc3)s2)cc1 | 23
COc1cc(/C=C/C(=O)O)cc(S(=O)(=O)Nc2cccc(SC)c2)c1OC | 12
Cn1c(SCC(=O)Nc2cccc(C(=O)O)c2)nnc1-c1cc2cc(Br)ccc2o1 | 23
COc1ccc(CNC(=O)c2ccc(SC)cc2OC)cc1 | 19
COC(=O)CNC(=O)CSc1nnc2cc(C)c3ccccc3n12 | 16
CSc1ccccc1NC(=O)Nc1ccccc1Cl | 11
Nc1cc(=O)nc(SCC(=O)Nc2ccccc2)n1-c1ccccc1 | 14

As entered above:
CC1CC(C)(C)NC(=S)N1CC(=O)NCc1ccc(F)cc1 (stereo unspecified) in Biofilm kill mix is entered as 5
Cc1ccc(NC(=O)/C=C\C(=O)NCC(=O)O)cc1C in Biofilm kill mix is entered as 5

New compounds follow:
SMILES | Biofilm kill mix
CCCCNC(=O)NS(=O)(=O)c1ccc(NC(=O)C(NC(N)=O)C(C)CC)cc1 (stereo unspecified) | 17
COC(=O)c1c(NC(=O)CN2CCC3(O)CCCCC3C2c2ccccc2OC)sc(C)c1C (stereo unspecified) | -12
COc1ccc(COC(=O)NNC(=O)c2ccc(OC)cc2)cc1 | 4
COc1ccccc1N=C(C)C1=C(O)CC(c2ccccc2)CC1=O (stereo unspecified) | 6
O=C(CNC(=O)c1ccncc1)N/N=C/c1cc(Br)ccc1OCc1ccccc1 | 22
COc1cccc(CN2CCN(Cc3c(C)nn(C(C)C)c3C)CC2CCO)c1 (stereo unspecified) | 6
COc1ccc(CN2CCNC(=O)C2CC(=O)NCCC2=CCCCC2)cc1OC (stereo unspecified) | 32
Cc1ccccc1-c1nc(CN2CCSCC2)c(C)o1 | 29
O=C(Nc1nnc(Cc2ccccc2)s1)c1cccnc1 | 30

Of the compounds above, 3 have a tert-butyl group.
SMILES | Biofilm kill mix
CC(C)(C)NC(=O)c1ccc2c(c1)C1C3CCC(C3)C1C(c1ccccc1)N2 (stereo unspecified) | 12
CC(C)(C)OC(=O)C(C(=O)OC(C)(C)C)c1ccc(Cl)nn1 | 21
CC(C)(C)NC(=O)N1CCN(c2nc(-c3ccccc3)ns2)CC1 | 1

Source: PubChem BioAssay
